Vaccinia mCherry – qHTS for Stage-Specific Inhibitors of Vaccinia Orthopoxvirus: mCherry Reporter Primary qHTS. Vaccinia virus mCherry reporter infection, fluorescence; about a quarter of the inactives have no number. Potency, µM (highest dose often 36.5 µM), inactives show at the highest dose activity change, negative = inhibition, most hits filed as inhibitors. 0.63% of 310,000 active. AID 720579, 2013; active = well fitted inhibition curve with a large enough effect; inconclusive = small, poorly fitted or top-dose-only effect; inactive = no such curve, though single readings can be large or run the other way; tested in A549 cells; note: nearly all actives have a fitted effect of over 35% in size; inactives centre near -10
VACV Venus inh – qHTS for Stage-Specific Inhibitors of Vaccinia Orthopoxvirus: Venus Reporter Primary qHTS | Vaccinia virus Venus reporter expression, fluorescence | Potency, µM (series often up to 36.5 µM), for the others: at the top dose activity change, negative = inhibition, actives largely listed as inhibitors | 0.46% of 330,000 active | AID 720580, 2013; active means well fitted inhibition curve with a large enough effect; inconclusive means small, poorly fitted or top-dose-only effect; inactive means no such curve, though single readings can be large or run the other way; tested in A549 cells; note: nearly all actives have a fitted effect of over 30% in size; inactives centre near -10
Active calls of the source: *; i = inactive; ? = inconclusive; . = not tested or not shown; [ ] = remark or other dose. % is set by controls: 0 for no effect and ±100 for the full control effect; potency is the fitted concentration of half-maximal effect.

The line under a structure holds: VACV Venus inh	Vaccinia mCherry
> Cc1ccc(NC(=O)c2ccc(NC(=O)N3CCSc4ncccc43)cc2)c(C)c1
→ -6.6%	-3.1%
> Cc1ccc(N=C2C(=O)Nc3ccc(C)c(Br)c32)cc1
→ -11.5%	-10.1%
> CCC(CC)NC(=O)COC(=O)c1cccc(C)c1O
→ -2.7%	-5.9%
> O=C1CCCC2=C1C(c1ccccc1)C1C(=O)c3ccccc3C1=N2 (centres undefined)
→ ?	?
> O=C(COc1ccc(Cl)cc1)NC1CC1
→ 1.9%	-14.1%
> Nc1nnc(SCC(=O)OCC(=O)c2ccccc2)s1
→ 0.5%	i
> COCc1cc(C)nc(SCC(=O)Nc2cccc(C)c2)c1C#N
→ -15.7%	i
> Cn1nc(C(=O)OCC(=O)c2ccc(Cl)cc2)c2ccccc2c1=O
→ -2.8%	-16.2%
> CCOC(=O)c1csc(NC(=O)CSc2nnnn2-c2ccc(OCC)cc2)n1
→ -2.7%	-11.0%
> N#Cc1ccc(-c2nc3c4ccccc4ccn3c2Cc2cccc(Cl)c2)cc1
→ 5.2%	i
> O=C(COC(=O)c1ccc[nH]c1=O)NCC1CCCO1 (centres undefined)
→ -3.2%	.
> CSc1ccc(CCNC(=O)c2ccc3c(c2)nc2n3CCC(C)C2)cc1 (centres undefined)
→ -0.6%	-10.9%
> COc1cccc(C(C)(O)c2nc(-c3cccc(C#N)c3)cs2)c1 (centres undefined)
→ -14.4%	-28.9%
> C#CCN(C[C@H]1[C@H](OC(=O)Nc2c(C)noc2C)[C@H](OC(=O)Nc2c(C)noc2C)C[C@H]2C(=O)N(c3ccccc3)C(=O)[C@@H]12)S(=O)(=O)c1ccc(C)cc1
→ -9.9%	-12.8%
> CCC(C(=O)NCCCN1CCN(C)CC1)n1nc(C)n2c(cc3occc32)c1=O (centres undefined)
→ -10.3%	-25.2%
> CCCCCN(C(=O)NC(=O)Nc1ccccc1C)S(C)(=O)=O
→ -10.2%	-7.3%
> C[C@@H](C(=O)Nc1ccc2ccccc2c1)[C@H]1C[C@]1(C)[C@H](NC(=O)c1cccnc1)c1ccccc1
→ ?	i
> Cc1cc(C)cc(NC(=S)/C(=C(\[O-])c2ccc(Cl)s2)[n+]2cccc(C)c2)c1
→ -3.3%	i
> Cc1ccc(NC=C(S(=O)(=O)c2ccccc2)S(=O)(=O)c2ccccc2)cc1
→ -6.9%	i
> Cc1ccc(S(=O)(=O)NCCc2csc3nc(-c4ccccc4F)nn23)cc1C
→ -3.5%	0.5%
> CCCCSc1nc2[nH]ncc2c(=O)[nH]1
→ -6.1%	i
> COc1ccc(CCNCc2c(OC)ccc3ccccc23)cc1
→ -18.5%	?
> Cc1ccc(S(=O)(=O)NCCC(=O)NCc2ccc3c(c2)OCO3)cc1C
→ -11.3%	-21.2%
> CCOC(=O)c1c(C)nc2c(c(SC)nn2-c2ccccc2)c1N
→ -8.6%	.
> CCC(CC)C(=O)OCc1cc(=O)n2nc(C3CC3)sc2n1
→ -13.7%	i
> Cc1cc2c(OCC(O)CNC(C)(C)C)cccc2[nH]1 (centres undefined)
→ -3.4%	.
> O=C(CNC(=O)c1sc2ccccc2c1Cl)NCc1cccc(C(F)(F)F)c1
→ 15.8µM*	-25.9%
> C#CCNC(=O)C1=C[C@@H](C2CC2)C[C@@H](OCCCCO)O1
→ 6.6%	-10.5%
> Cc1ccc(S(=O)(=O)N(C)c2cc(S(=O)(=O)N3CCC(C)CC3)c(C)cc2C)cc1
→ -24.6%	.
> O=C(CCN1C(=O)C2C3C=CC(C3)C2C1=O)Nc1ccc(F)cc1 (centres undefined)
→ ?	.

Structures above containing an aryl methoxy group, in the order listed:
The line under a structure holds: VACV Venus inh	Vaccinia mCherry
> COc1cccc(C(C)(O)c2nc(-c3cccc(C#N)c3)cs2)c1 (centres undefined)
→ -14.4%	-28.9%
> COc1ccc(CCNCc2c(OC)ccc3ccccc23)cc1
→ -18.5%	?

Further entries:
The line under a structure holds: VACV Venus inh	Vaccinia mCherry
> CC1(C(=O)NCCC#N)CCN1C(=O)C1(c2ccccc2)CCCC1 (centres undefined)
→ -5.2%	10.1%
> O=C(CSCc1ccc(Cl)cc1)Nc1ccc(O)cc1C(=O)O
→ -6.9%	-18.6%
> COC(=O)c1ccccc1NC(=O)c1cc[n+](C)cc1
→ -8.8%[7.34 µM]	-3.6%[7.34 µM]
> CC(=O)c1cccc(NC(=O)c2cccc(S(=O)(=O)N3CCOCC3)c2)c1
→ -11.5%	-11.1%
> CCN1C(=NCC2CC2)N[C@@H](c2ccccc2)C(C(=O)OC)=C1C
→ -14.0%	-1.5%
> CC(C)=CC(=O)NCCc1ccccc1
→ -12.4%	-1.9%
> COc1cc([C@@H]2CC=C(C(=O)O)[C@H](c3ccccc3F)N2S(=O)(=O)c2ccc(C)cc2)cc(OC)c1OC
→ 2.1%	-5.7%
> CC(=O)NC(C)C12CC3CC(CC(CC(=O)O)(C3)C1)C2 (centres undefined)
→ -6.2%	-25.8%
> COC(=O)c1cc(=O)c(O)c2c(O)c(O)ccc2c1
→ 0.0%	-2.1%
> COc1ccccc1CN(C(=O)CNC(=O)c1ccco1)C(C(=O)NCC1CCCO1)c1ccc(OC)c(OC)c1 (centres undefined)
→ -4.6%	1.3%
> COCCNC(=O)c1ccc(N2CC3CC(C2)c2cccc(=O)n2C3)c([N+](=O)[O-])c1 (centres undefined)
→ -11.1%	i
> CC(=O)N1c2ccc(S(=O)(=O)NCC3CCC(C(=O)Nc4cccc(C)c4C)CC3)cc2CC1C (centres undefined)
→ -19.2%	-9.9%
> OCCCCc1nccc2c1[nH]c1ccccc12
→ -9.2%	-0.6%
> CCOC(=O)N1CCC(NC(=O)CS(=O)(=O)Cc2nc(-c3ccccc3Cl)oc2C)CC1
→ ?	-29.0%
> Cc1ccc(OCC(=O)Nc2cccc(C(=O)OCc3cc(=O)n4c(C)csc4n3)c2)cc1
→ -12.8%	-13.2%
> Cc1cc(C)c2oc(C(=O)Nc3nc4ccc(Cl)cc4s3)cc(=O)c2c1
→ 0.9%	2.0%
> CN(Cc1c(F)cccc1Cl)C(=O)COC(=O)Cn1cnc2ccccc2c1=O
→ -1.0%	i
> O=C1C=C(c2cccc(CO)c2)C[C@@H](c2ccc3c(c2)OCO3)C1
→ -9.2%	-8.1%
> CCOc1ccc(N(CC(=O)NC2CCCCC2)C(=O)CCC(=O)Nc2cc(C)ccn2)cc1
→ -8.8%	-14.3%
> COc1ccc(OC)c2sc(Cl)nc12
→ -12.9%	i
> O=C(c1ccncc1)c1ccc([N+](=O)[O-])cc1
→ -4.7%	-17.8%
> Cc1ccc(OCC(O)Cn2c(NCCc3ccccc3)nc3c2c(=O)[nH]c(=O)n3C)cc1 (centres undefined)
→ -11.6%	.
> O=C(CN1CCOCC1)Nc1ccccc1C(=O)O
→ -4.5%	-24.4%
> S=C(NCCc1ccccc1)NCC(c1ccco1)N1CCCCC1 (centres undefined)
→ -19.9%	-15.1%
> CCC(CC)C(=O)NCCCN1CCOCC1
→ -7.6%	-14.2%
> COc1ccc(CN2C(=O)c3ccccc3C2=O)cc1C(=O)N(C)CC(=O)Nc1ccc(F)cc1
→ -4.0%	i
> O=C(CCCc1nc2ccccc2s1)NCc1ccc(F)cc1
→ -11.7%	i
> CCCNC(=O)C1(C)CCN(C(=O)c2cccc(Cl)c2)C1 (centres undefined)
→ 3.1%	35.4%[activator]
> Cc1cccc(NCCC(=O)c2ccc([N+](=O)[O-])cc2)c1C
→ 0.0%	?
> O=C(NCc1cccnc1)C1CCCN(S(=O)(=O)c2ccc(Br)cc2)C1 (centres undefined)
→ -32.0%	.

The line under a structure holds: VACV Venus inh	Vaccinia mCherry
> COc1cc2c(cc1OC)C(C(=O)Nc1cccc(C)n1)C(c1cccnc1)N(C)C2=O (centres undefined)
→ -24.2%	-26.2%
> COc1ccc(NC(=O)Cc2coc3cc(C)ccc23)cn1
→ -5.0%	i
> CCC(C)(C)n1nnnc1C(c1cc(OC)c(OC)c(OC)c1)N1CCN(c2ccccc2)CC1 (centres undefined)
→ -11.4%	.
> Cc1ccc2c(c1)sc1nc(-c3cc4cc(Cl)ccc4oc3=O)cn12
→ -9.4%	-9.6%
> S=C(Nc1ccc(N2CCOCC2)cc1)Nc1ccc2snnc2c1
→ -20.2%	-11.0%
> Cc1ccc(-n2nnnc2SCC(=O)NCC2(N3CCOCC3)CCCCC2)c(C)c1
→ ?	-19.3%
> O=C(Nc1cc(Cl)ccc1O)c1cc(-c2ccc3c(c2)OCO3)on1
→ -3.9%	-13.0%
> COc1ccc(NC(=O)Cc2csc(COc3cccc(C)c3)n2)c(OC)c1
→ -4.5%	-14.8%
> CCOC(=O)c1sc(NC(=O)CSc2ncccn2)nc1C
→ -20.1%	-24.9%
> NS(=O)(=O)c1ccc(NC(=O)COC(=O)c2cnccn2)cc1
→ -23.7%	i
> COc1cc(OC)cc(C2C(C#N)=C(N)Oc3n[nH]c(-c4cccnc4)c32)c1 (centres undefined)
→ -20.4%	-16.8%
> Cc1cc(C)nc(NC2=NCC(=O)N2c2ccccc2)n1
→ -1.1%	-9.0%
> CCOc1ccc(C(=O)NC(Cc2ccccc2)C(=O)OC)cc1 (centres undefined)
→ -9.4%	-17.4%
> COc1ccc(NC(=O)C2CCC2)cc1S(=O)(=O)Nc1cc(C)ccc1Br
→ -24.6%	-27.7%
> COc1ccc(Oc2cnc3ccccc3n2)cc1
→ -2.0%	i
> Cc1cccc(NC(=O)c2cccnc2Cl)n1
→ -27.4%	-3.7%
> COc1ccccc1NC(=O)C1=C(C)Nc2nc(SCc3ccccc3Cl)nn2C1c1ccncc1 (centres undefined)
→ 4.2%	12.7%
> O=C1[C@H]2[C@H](ON3CCCC[C@H]23)C(=O)N1c1ccc(Cl)cc1
→ 8.0%	4.5%
> COc1ccc(-c2c3c([nH]c(=S)c2C#N)CCC3)cc1
→ 3.9%	-8.8%
> CCC(=O)NC(=S)Nc1ccccc1C(=O)OC
→ -6.7%	i
> CCN(CC)C(=O)CSc1nnc(CNc2ccc(F)cc2)n1-c1ccccc1
→ 0.7%	i
> CCCNc1nc(C)cc(-c2cc(C(=O)Nc3ccccc3)on2)n1
→ -24.9%	-26.8%
> O=C(CCN1C(=O)C2C3C=CC(C3)C2C1=O)Nc1c(F)cccc1F (centres undefined)
→ -28.0%	.
> c1coc(CNC2CCCCCCC2)c1
→ -20.3%	i
> CCC(C)NS(=O)(=O)c1ccc(N2CCCCS2(=O)=O)cc1 (centres undefined)
→ -7.6%	-5.1%
> O=C(c1ccc(CS(=O)Cc2ccc(Cl)cc2)o1)N1CCN(C2CCCCC2)CC1 (centres undefined)
→ -16.1%	-15.8%
> COc1ccc(CN(C)S(=O)(=O)c2nnc(NC(=O)c3cccc(F)c3)s2)cc1OC
→ -9.8%	-18.8%
> COc1ccc(N(CC(=O)NCCc2ccccc2)C(=O)CCC(=O)Nc2nccs2)c(OC)c1
→ -11.0%	-8.0%
> CN(C)S(=O)(=O)c1ccc(N2CCCC2)c(C(=O)Nc2nc(-c3ccc(F)c(F)c3)cs2)c1
→ -3.2%	-2.1%
> O=C(Nc1nc2ccc(F)cc2s1)c1ccccn1
→ ?	?

The line under a structure holds: VACV Venus inh	Vaccinia mCherry
> COc1cc(OC)cc(C(=O)N[C@H](C(=O)Nc2nc(-c3cc(OC)ccc3OC)cs2)C(C)C)c1
→ -16.4%	-6.0%
> Cc1c(O)c2ccccc2oc1=O
→ -3.0%	0.0%
> CS(=O)(=O)c1ccc2nc(NC(=O)C3CCCCC3)sc2c1
→ ?	?
> CCc1cc(C(=O)Nc2cnn(Cc3ccccc3C)c2)no1
→ -10.2%	-12.3%
> CCOC(=O)CN1C(=O)C(=O)N(Cc2c(Cl)cccc2Cl)C1=O
→ -3.3%	i
> CCSc1nnc(NC(=O)C2CCCCC2C(=O)O)s1 (centres undefined)
→ -13.1%	-11.3%
> O=C(CN1CCOCC1)c1ccc2ccccc2c1
→ -9.9%	-19.3%
> Cc1ccc(N/C(N)=N/c2nc(CSc3ccc(C)cc3)cc(=O)[nH]2)cc1
→ 0.2%	-12.0%
> CC1CCC(C(C)C)C(OC(=O)Cn2nnc3c(cnn3-c3ccccc3)c2=O)C1 (centres undefined)
→ 12.6%[7.34 µM]	4.1%[7.34 µM]
> CCN(C(=O)c1cc2c(=O)[nH]c3ccc(C)cc3c2s1)c1ccccc1F
→ -19.9%	-1.6%
> O=C(NCC1CCCO1)c1csc2c1CCCCC2 (centres undefined)
→ -13.5%	-23.7%
> COc1ccc2c(c1)c(C(=O)CN1CCC3(CC1)OCCO3)c(C)n2Cc1ccccc1
→ -17.1%	i
> CCCCn1c(CN2CCN(c3ccc(F)cc3)CC2)nc2c1c(=O)n(C)c(=O)n2C
→ -16.9%	?
> CC(C)OC(=O)C1C(=O)CC(C)(O)C(C(=O)OC(C)C)C1c1cccc([N+](=O)[O-])c1 (centres undefined)
→ -4.0%	-12.0%
> COc1ccc(OCCn2cc(C=O)c3ccccc32)cc1
→ -11.6%	-12.7%
> Cc1c(-c2ccc(Cl)cc2Cl)nc2ccccc2c1C(=O)NCCN1CCOCC1
→ -11.3%	-8.5%
> O=C(O)CCN1C(=O)C2C3CC(C2C1=O)C1C(c2ccccc2)c2sc(=O)[nH]c2SC31 (centres undefined)
→ -2.3%	i
> COc1ccc(N2CCN(S(=O)(=O)c3ccc4c(c3)NC(=O)CS4)CC2)cc1
→ 14.3%[7.34 µM]	-3.4%[7.34 µM]
> Cc1ccccc1CNC(=O)CCCn1ncn2c(cc3occc32)c1=O
→ -3.2%	-11.7%

Screening results deposited in PubChem by National Center for Advancing Translational Sciences (NCATS).
